# Source: PubChem BioAssay (several laboratories)
# Rce1 inh: yeast Rce1p protease inhibitors, primary screen, biochemical, fluorescence, cell-free homogeneous; 290,000 compounds, 0.27% hits; yeast membranes, quenched prenylated peptide cleavage fluorescence; CAAX prenyl protease 2 (Saccharomyces cerevisiae (strain ATCC 204508 / S288c)), Q03530; calls only;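 active = fall in fluorescence gain of 50% or more versus controls, with final raw signal at or below 3038400; inconclusive = same 50% fall but final raw signal above 3038400; inactive = fall in fluorescence gain under 50%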;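 note: plate controls were neutral control wells for no effect and wells lacking membranes for full effect; tested at 10 µM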
# PABP FP inh: PABP poly(A) RNA binding inhibitors, primary screen, biochemical, fluorescence polarization, uHTS. Polyadenylate-binding protein 1 (Homo sapiens), P11940. inhibition, % at 35 µM. 290,000 compounds, 1% hits. AID 2014, 2009;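 active = 50% or more with normal probe brightness, or confirmed in later tests; inconclusive = above 50% with abnormal brightness, or retests that disagree; inactive = below 50% or failed in later tests; about a fifth of its hits are not listed in these tables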;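 note: calls also rest on retests at 20 µM and on dose response follow-up; controls were probe without protein and protein plus probe with vehicle; some compounds called inactive have numbers as strong as hits; many hits fall short of the cut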
# Target sequence (P11940 whole entry, looked up): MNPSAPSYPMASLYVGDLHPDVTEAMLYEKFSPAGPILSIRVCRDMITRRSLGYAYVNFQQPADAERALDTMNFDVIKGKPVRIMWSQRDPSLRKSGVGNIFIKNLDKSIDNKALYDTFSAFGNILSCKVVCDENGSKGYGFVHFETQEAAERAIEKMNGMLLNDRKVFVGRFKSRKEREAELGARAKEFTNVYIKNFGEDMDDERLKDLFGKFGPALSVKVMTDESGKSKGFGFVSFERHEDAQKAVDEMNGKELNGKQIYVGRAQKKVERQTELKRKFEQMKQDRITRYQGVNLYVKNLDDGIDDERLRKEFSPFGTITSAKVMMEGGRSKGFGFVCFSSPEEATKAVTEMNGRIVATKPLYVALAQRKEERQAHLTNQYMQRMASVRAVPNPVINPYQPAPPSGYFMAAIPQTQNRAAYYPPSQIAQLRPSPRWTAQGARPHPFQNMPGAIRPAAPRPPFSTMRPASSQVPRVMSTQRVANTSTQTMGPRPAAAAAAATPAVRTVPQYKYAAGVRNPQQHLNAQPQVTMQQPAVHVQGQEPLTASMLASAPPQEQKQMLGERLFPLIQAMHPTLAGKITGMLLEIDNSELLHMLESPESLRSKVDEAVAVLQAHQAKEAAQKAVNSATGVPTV
# MT1-MMP act inh: blockers of MT1-MMP proenzyme processing, primary screen, HT1080 RFP-PRO-GFP cells, GFP/RFP fluorescence | GFP/RFP ratio fluorescence, overnight; percent of plate control window, DMSO zero | Matrix metalloproteinase-14 (Homo sapiens), P50281 | GFP/RFP ratio change, % at 20 µM | AID 651647, 2012 | 360,000 compounds, 0.061% hits;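 active = GFP/RFP ratio change of at least 30% with cell ATP level not reduced by more than half and red fluorescence within 50% of control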; note: strong numbers were not always called active
#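 Test system: HT1080 RFP-PRO-GFP cells; Benchmarks: DMSO and RFP-L50D-GFP cell wells; Timing: cells overnight before dosing, compound overnight, 37 °C, 5% CO2; Compound: one 20 µM compound dose with 1% DMSO; Read-out: GFP/RFP fluorescence ratio.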
# eIF4H FP inh: human eIF4H binding inhibitors, primary screen, translation initiation inhibitor project, biochemical, uHTS, fluorescence polarization; eIF4H fluorescence polarization binding assay; inhibition, % at 35 µM; 290,000 compounds, 0.94% hits;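 active = 50% or more with normal probe brightness, or confirmed in later tests; inconclusive = above 50% with abnormal brightness, or retests that disagree; inactive = below 50% or failed in later tests; about a fifth of its hits are not listed in these tables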;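 note: calls also rest on retests at 20 µM and on dose response follow-up; 0% = protein and probe with vehicle and 100% = probe without protein; strong numbers were not always called active; many hits fall short of the cut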
# HIV Env fusion: inhibitors of HIV-1 Env-driven cell-cell fusion, primary screen, HeLa-JRFL effector, CEM21 target cells, luciferase. inhibition, % at 12.3 µM. 360,000 compounds, 1.1% hits;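 active = mean replicate inhibition score of at least 50 and every replicate individually at or above 50; inconclusive = only one of the two criteria met; inactive = mean below 50 and not all replicates reaching 50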;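 note: 0% = plate neutral controls and 100% = maraviroc near 300 nM; one replicate is shown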
# CSC inhib: cancer stem cell viability inhibitors, primary screen, luminescence; cancer stem cell-like cells viability; inhibition, % at 7.5 µM; 300,000 compounds, 1.1% hits;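 active = mean at 75% or more and at least half the replicates too; inconclusive = mean and replicates disagree; tested in HMLE shEcad cells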;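 note: 0% = median of negative and 100% = median of positive control wells; the first replicate is given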
# Yeast UUG start: modulators of yeast start codon fidelity, primary screen, whole organism, S. cerevisiae, single point, plate reader; S. cerevisiae UUG-firefly luciferase reporter, luminescence/redox ratio; activity score, % at 18.7 µM; 350,000 compounds, 0.13% hits;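 active = replicate mean at a twofold rise or more, about +100% in these data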;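 note: firefly luciferase made from a UUG start codon reports start codon fidelity; reporter light over untreated wells divided by growth signal over untreated wells; some hits fall short of that in this replicate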
# eIF4H FP inh retest: second read-out of eIF4H FP inh, no call of its own (marks repeat the call); inhibition, %; compound at 20 µM; confirmation average;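 mean of two retest wells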
# PABP FP inh retest: also measured in PABP FP inh; calls as there; inhibition, %; compound at 20 µM; confirmation repeats;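 mean of two retest wells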
# MT1-MMP act inh RFP: recorded beside MT1-MMP act inh, whose call it bears; RFP signal change, %; measured here: RFP expression control read;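 0 = vehicle wells; hits needed this value within 50% of zero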
# Starred values were filed as active, the others as inactive; i = inactive; ? = inconclusive; . = no result given; & = joins results of further samples.
SMILES,Rce1 inh,PABP FP inh,MT1-MMP act inh,MT1-MMP act inh RFP,eIF4H FP inh,HIV Env fusion,CSC inhib,Yeast UUG start,others
CC1Cc2ccccc2N1CC(=O)NC(=O)NC1CCCCC1 (stereo unspecified),i,-4,0,-3,1,-1,5,.,
CCOC(=O)c1cccnc1SCC(=O)Nc1ccc(C)cc1,i,8,3,-1,18,-11,1,.,
COc1cc(/C=N/NC(=O)c2ccncc2)ccc1OCc1cnc(Cl)s1,i,2,-1,-2,1,-30,-8,-11,
O=C(OCC(=O)N1CCc2ccccc21)c1ccc([N+](=O)[O-])o1,.,.,2,-1,.,.,-7,-19,
CCOc1cc(NC(=O)CC(C)C)c(OCC)cc1NC(=O)CCn1nnc2ccccc21,i,-3,3,0,-16,-62,-7,-3,
CCCCn1c(N)c(N(CC(C)C)C(=O)CCNC(=O)c2ccccc2Cl)c(=O)[nH]c1=O,i,.,1,2,.,8,-16,.,
OCCCNc1ncnc2[nH]ncc12,.,.,1,5,.,3,.,-8,
CC(NC(=O)C1CCN(C(=O)Nc2ccccc2)CC1)c1ccc(Cl)cc1 (stereo unspecified),.,.,1,2,.,7,.,-1,
NC(=O)c1ccc(N=Cc2c(O)ccc3ccccc23)cc1,i,.,0,5,.,-33,-3,-13,
O=C1CCC2c3ccc4ccccc4c3CCN12 (stereo unspecified),i,8,-5,4,12,-265,-6,-5,
O=C(Nc1ccc(Cl)cc1)c1cc(-c2cccs2)on1,i,-20,3,3,-22,-15,14,-20,
Cc1cc2ccccc2n1CCNC(=O)COc1ccccc1,i,115*,40*,43*,108,-5,5,-12,eIF4H FP inh retest=40;PABP FP inh retest=96*
CN1CCOc2cc(S(=O)(=O)NCc3ccc(S(N)(=O)=O)cc3)ccc21,i,-8,-4,-1,18,4,-5,-6,
Cc1noc(C)c1CSc1nnc(-c2ccncc2)n1-c1ccc(Cl)c(Cl)c1,i,9,2,1,-17,.,-6,-2,
CCOC(=O)c1ccc(NC(=O)CSC2=NC(=O)C(CC)C(=O)N2)cc1 (stereo unspecified),i,6,2,9,-10,12,-15,-13,
CCc1ccc(NC(=O)CSc2nc3ccccc3c(=O)n2CCCC(=O)N2CCCC2)cc1,i,2,-6,-13,-1,-72,40,-5,
Cc1nn(C)c(N)c1[N+](=O)[O-],i,-6,0,4,5,-1,-7,.,
Cc1ccc(S(=O)(=O)CCC(=O)Nc2ccc(S(=O)(=O)N(C)C)cc2)cc1,i,-13,.,.,-19,.,.,.,
COc1ccc(CC(=O)NNC(=O)c2nn(Cc3ccccc3)c(=O)c3ccccc23)cc1OC,i,-3,-1,-2,-1,13,6,.,
O=C(N/N=C/CCc1ccccc1)c1ccccc1,i,-1,-5,-7,-4,.,0,-10,
COC(=O)c1ccc(OCC(O)CNC2CCCC2)cc1 (stereo unspecified),i,-2,-3,0,3,4,3,-2,
Cc1cc(NC(=O)c2cc(-c3cccc(Cl)c3)on2)no1,i,9,0,-2,-4,-3,2,-11,
Cc1ccc(NS(=O)(=O)c2ccc(C(=O)NCCCN3CCOCC3)cc2)cc1,i,.,2,2,.,0,-2,-10,
Cc1ccc(S(=O)(=O)c2nc(NN(C)C)sc2Cl)cc1,i,-1,3,-8,-2,18,-6,.,
Cc1ccc(C)c(S(=O)(=O)Nc2cc3c4c(c2)CC(=O)N4CCC3)c1,i,.,8,2,.,-27,2,-13,
COc1ccc(CNC2CCCCC2C)c(OC)c1 (stereo unspecified),.,13,-3,-4,1,.,0,.,
CC1CCN(C(=O)CSc2nnc(Cn3c(=O)sc4ccccc43)n2C)CC1,i,-5,-2,-3,-4,-2,.,-19,
Cc1ccc(C)c(OCCNc2ccc([N+](=O)[O-])cn2)c1,i,1,4,0,-6,12,13,-11,
N#Cc1c(-c2cccc(F)c2)cc(-c2ccccc2)nc1Br,i,2,0,-4,-8,-80,10,-5,
CCC(C)(C)NC(=O)C(c1ccc(C)cc1)N(Cc1cccnc1)C(=O)c1csnn1 (stereo unspecified),i,-6,1,7,0,30,-2,-14,
COC(=O)CCc1ccc(O)cc1,i,-4,-2,3,-13,.,-5,-12,
Cc1ccc(NC(=O)COC(=O)c2ccc[n+]([O-])c2)c(Br)c1,.,.,1,3,.,-5,-8,-8,
COc1ccccc1N(CC(=O)NC1CCCC1)C(=O)c1csnn1,i,-4,2,2,1,-7,-4,-15,
COc1cccc(CNC(=O)CCn2ccc3cc(S(=O)(=O)N4CCCC4)ccc32)c1,i,-7,-1,0,-5,35,-5,-3,
Cc1nc2nc(C)c(CCC(=O)Nc3ccc4c(c3)OCO4)c(C)n2n1,i,-3,3,4,-10,-17,-4,-17,
O=c1[nH]nc(-c2ccc(F)cc2)cc1Cc1cccs1,i,-1,-3,0,-5,5,5,.,
CCCC[C@@H]1CNCCN1CCc1cccc2ccccc12,i,.,-6,2,.,-14,5,4,
CCc1ccc(/C=C/C(=O)c2ccc(S(=O)(=O)N(C)C)cc2)cc1,i,-5,6,-1,29,6,22,-13,
C[C@H](CO)N1C[C@H](C)[C@@H](CN(C)C(=O)c2ccc3ccn(C)c3c2)OCc2cn(nn2)CCCC1=O,.,.,5,5,.,-1,.,4&17,
O=C(CN1CCN(S(=O)(=O)c2ccc(Br)cc2)CC1)N/N=C/c1cccnc1,i,-6,1,2,-2,-7,-9,-22,
CN(C(=O)c1ccc2c(c1)OCO2)C1(C(=O)NC2CCCC2)CCCCC1,i,-5,-4,-2,2,-36,5,14,
O=C(Cc1ccccc1)NNS(=O)(=O)c1ccccc1[N+](=O)[O-],i,2,3,4,-5,-4,.,-8,
Cc1ccc(NS(=O)(=O)c2ccc3c(c2)C(=O)c2ccccc2C3=O)c(C)c1,.,-4,7,6,5,33,32,-2,
CCOc1ccc(NC(=S)NC(=O)C2CCCC2)cc1,i,0,-2,2,3,-2,-28,-26,
COc1ccc(C(=O)N(C)CC2CCN(CCc3cccc(C(F)(F)F)c3)CC2)cc1C,i,-4,2,-4,-13,10,3,13,
CN(c1ccccc1)S(=O)(=O)c1ccc(-c2ccccc2)cc1,i,-5,2,0,-4,-19,?,-7,
Cc1sc(NC(=S)NC(=O)c2cccs2)nc1-c1ccc(CC(C)C)cc1,i,-10,3,1,-4,.,3,.,
Cn1cc(SCC(=O)NC2CCCCC2)c2ccccc21,i,0,-1,1,-10,-87,-19,-2,
COc1cccc(CNC(=O)CSCc2cnn(-c3ccccc3)c2-n2cccc2)c1,i,-6,1,-1,-1,-69,23,-23,
COc1cc(CN(C)CC(=O)c2[nH]c(C)c(C(C)=O)c2C)ccc1OC(F)F,i,-3,1,-10,2,.,5,-1,

# An excerpt from above in order of molar mass, high to low:
SMILES,Rce1 inh,PABP FP inh,MT1-MMP act inh,MT1-MMP act inh RFP,eIF4H FP inh,HIV Env fusion,CSC inhib,Yeast UUG start,others
CN(C(=O)c1ccc2c(c1)OCO2)C1(C(=O)NC2CCCC2)CCCCC1,i,-5,-4,-2,2,-36,5,14,
O=C(Cc1ccccc1)NNS(=O)(=O)c1ccccc1[N+](=O)[O-],i,2,3,4,-5,-4,.,-8,
CCOc1ccc(NC(=S)NC(=O)C2CCCC2)cc1,i,0,-2,2,3,-2,-28,-26,

# A section taken from the entries so far, for reference:
SMILES,Rce1 inh,PABP FP inh,MT1-MMP act inh,MT1-MMP act inh RFP,eIF4H FP inh,HIV Env fusion,CSC inhib,Yeast UUG start,others
CC1Cc2ccccc2N1CC(=O)NC(=O)NC1CCCCC1 (stereo unspecified),i,-4,0,-3,1,-1,5,.,
CCOC(=O)c1cccnc1SCC(=O)Nc1ccc(C)cc1,i,8,3,-1,18,-11,1,.,
COc1cc(/C=N/NC(=O)c2ccncc2)ccc1OCc1cnc(Cl)s1,i,2,-1,-2,1,-30,-8,-11,
O=C(OCC(=O)N1CCc2ccccc21)c1ccc([N+](=O)[O-])o1,.,.,2,-1,.,.,-7,-19,
CCOc1cc(NC(=O)CC(C)C)c(OCC)cc1NC(=O)CCn1nnc2ccccc21,i,-3,3,0,-16,-62,-7,-3,
CCCCn1c(N)c(N(CC(C)C)C(=O)CCNC(=O)c2ccccc2Cl)c(=O)[nH]c1=O,i,.,1,2,.,8,-16,.,
OCCCNc1ncnc2[nH]ncc12,.,.,1,5,.,3,.,-8,
CC(NC(=O)C1CCN(C(=O)Nc2ccccc2)CC1)c1ccc(Cl)cc1 (stereo unspecified),.,.,1,2,.,7,.,-1,
NC(=O)c1ccc(N=Cc2c(O)ccc3ccccc23)cc1,i,.,0,5,.,-33,-3,-13,
O=C1CCC2c3ccc4ccccc4c3CCN12 (stereo unspecified),i,8,-5,4,12,-265,-6,-5,
O=C(Nc1ccc(Cl)cc1)c1cc(-c2cccs2)on1,i,-20,3,3,-22,-15,14,-20,

# Later entries
SMILES,Rce1 inh,PABP FP inh,MT1-MMP act inh,MT1-MMP act inh RFP,eIF4H FP inh,HIV Env fusion,CSC inhib,Yeast UUG start,others
Oc1ccc2ccccc2c1CN1CCN(C/C=C/c2ccccc2)CC1,i,4,0,-1,-5,21,-4,-6,
CC(C)N1C(=O)c2ccccc2C1C(=O)NCCc1ccccc1 (stereo unspecified),i,-8,0,2,-4,-2,-16,-3,
CC(C)(C)NC(=O)CC1C[C@H](C(=O)N2CCCCC2)[C@@]2(CCc3ccccc3)c3[nH]c4ccccc4c3CCN2C1=O (stereo partly specified),.,.,-29,-21,.,-40,2,-6,
CC(=O)Nc1ccc(S(=O)(=O)NCCOc2ccc(Cl)cc2C)cc1,i,-10,0,-8,-8,13,.,.,
Cc1ccc(S(=O)(=O)N(C)CC(=O)N/N=C/c2ccc(C)o2)cc1,i,-6,-5,-2,0,6,10,0,
Cc1nc(SCc2cccc(F)c2)c2oc3ccccc3c2n1,i,-1,-3,4,2,11,25,.,
CC(OC(=O)c1nn(C(C)C)c(=O)c2ccccc12)C(=O)Nc1ncc(Cl)cc1Cl (stereo unspecified),i,41,0,-1,-5,.,1,-9,
O=C(Cc1ccc(Cl)cc1)NNc1c(F)c(F)cc(F)c1F,i,0,-2,-2,1,-8,-13,.,
COc1ccc2c(c1)C1NC(=S)NC(C)(O2)C1C(=O)Nc1ccc(Cl)cc1 (stereo unspecified),i,-11,4,-2,-2,10,-6,.,
COc1ccc(N(C2=NCCCS2)S(=O)(=O)c2ccc(C(C)(C)C)cc2)cc1,i,8,1,6,-2,21,-7,3,
CCCCCc1c(C)nc(N2CCc3ccccc32)[nH]c1=O,i,-9,7,-10,3,.,.,.,
COc1ccccc1NS(=O)(=O)c1cccc(N=C2N=C(N)c3ccccc32)c1,.,-3,-6,-5,-11,16,4,-8,
COc1cccc(NC(=O)c2nc(S(C)(=O)=O)ncc2Cl)c1,i,-4,-5,-3,6,-7,113*,-18,
Cc1ccc(S(=O)(=O)N2CCN(C(=O)c3n[nH]c(=O)c4ccccc34)CC2)c(C)c1,.,.,3,0,.,.,-6,-1,
Cc1cc(C)n(-c2nc(-c3ccc(Cl)cc3)cs2)n1,i,-7,-5,-4,-3,.,7,-15,
Cc1ccccc1Cn1nc(C)c(NC(=O)c2cc(-c3ccco3)on2)c1C,i,-3,0,-4,20,7,-8,.,
